# Source: PubChem (National Center for Advancing Translational Sciences (NCATS))
# FEN1 inhibitor = blocks human flap endonuclease 1; Recombinant FEN1 flap cleavage, fluorescence, 15 min; actives 0.35% (n = 390,000); Potency, µM (titrated, usually from 114 µM), without a hit: at the top dose activity change, negative = inhibition, usual class: inhibitors; P39748; AID 588795; active = well fitted inhibition curve with a large enough effect; also: nearly all actives have a fitted effect of over 65% in size
# Target sequence (P39748 whole entry, looked up): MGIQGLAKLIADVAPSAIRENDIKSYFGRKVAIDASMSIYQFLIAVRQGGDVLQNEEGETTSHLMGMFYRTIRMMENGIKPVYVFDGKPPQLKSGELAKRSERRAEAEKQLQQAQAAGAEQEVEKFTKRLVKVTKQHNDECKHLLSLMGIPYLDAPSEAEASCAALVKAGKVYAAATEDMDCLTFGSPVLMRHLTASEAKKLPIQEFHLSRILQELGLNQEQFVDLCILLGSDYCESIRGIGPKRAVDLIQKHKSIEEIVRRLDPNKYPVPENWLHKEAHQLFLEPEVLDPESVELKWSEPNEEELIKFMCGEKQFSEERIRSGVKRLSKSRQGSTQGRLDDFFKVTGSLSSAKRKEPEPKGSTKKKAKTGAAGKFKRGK
#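 Steps: FEN1 (10 nM) dispensed; compound added by pin tool; 15 min at room temperature; substrate added to 50 nM final; reads at 0 min and 15 min; data normalized and fitted (four-parameter Hill).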
# Numbers without * were called inactive; & = joins results of further samples. % is scaled to controls: 0 for no effect and ±100 for the full control effect; potency is read from the fitted curve at half-maximal effect. Some of the compounds tested; most or all hits stand in other tables.
SMILES,FEN1 inhibitor
Cc1ccc(SCCC(=O)N2CCOCC2)cc1,0%
COc1ccc(NC(=S)N2CCC(N(C)CC3CCCO3)CC2)cc1Cl (configuration not stated),0%
S=C(NCc1ccco1)N1CCN(c2ccccn2)CC1,6%
COc1ccc(C(=O)N2CCC(C(=O)Nc3cccc(C)c3)CC2)cc1OC,-11%
Cc1ccc(C(=O)NC(C)C2CC3CCC2C3)c(C)c1 (configuration not stated),-5%
Cc1cc2c(cc1S(=O)(=O)Nc1cccc(F)c1C)NC(=O)CO2,-2%
O=C(O)c1cc(Br)ccc1NN=C1CCCCC1,2%
CCOC(=O)C1=C(C)NC2=C(C(=O)CCC2)C1c1cc(OC)ccc1OC (configuration not stated),2%
Cn1c(CCN2CCOCC2)nc2cc(NC(=O)c3cccs3)ccc21,0%
Cc1cccc(NC(=O)CC2NCCNC2=O)c1 (configuration not stated),5%
N#CC1=C(N)NC(SCc2ccccc2)=C(C#N)C12CCCCC2,-16%
CCn1c(SCC(=O)NCc2cccs2)nnc1-c1ccncc1,9%
COc1ccc(-c2nsc3c(N4CCCC4)ncnc23)cc1,3%
CCn1nnnc1SCC(=O)NC1CCCC1,1%
CCN1CCCC1CNc1ncnc2c1[nH]c1ccc(F)cc12 (configuration not stated),-20%

# Some of the entries so far, with tabs:
molecule	FEN1 inhibitor
COc1ccc(C(=O)N2CCC(C(=O)Nc3cccc(C)c3)CC2)cc1OC	-11%
Cc1ccc(C(=O)NC(C)C2CC3CCC2C3)c(C)c1 (configuration not stated)	-5%
Cc1cc2c(cc1S(=O)(=O)Nc1cccc(F)c1C)NC(=O)CO2	-2%
O=C(O)c1cc(Br)ccc1NN=C1CCCCC1	2%
CCOC(=O)C1=C(C)NC2=C(C(=O)CCC2)C1c1cc(OC)ccc1OC (configuration not stated)	2%

# Continued.
SMILES,FEN1 inhibitor
CCc1nnc(NC(=O)C2CCCN2C(=O)Nc2ccc(Cl)cc2)s1 (configuration not stated),4%
CCOC(=O)C1CCCN(C(=O)C(C)Oc2ccc(Cl)cc2Cl)C1 (configuration not stated),-5%
O=C1O[C@H](CO)[C@@H](O)[C@H](O)[C@H]1O,1%
O=C(NC1CC(=O)N(c2ccccc2)C1)N1CCN(C(=O)c2ccco2)CC1 (configuration not stated),-4%
O=C(COC(=O)CNC(=O)c1ccccc1)Nc1ccc(Cl)cc1C(F)(F)F,8%
Cc1oc(-c2cccc(Cl)c2)nc1CN1CCCC(C(=O)NCCCN2CCOCC2)C1 (configuration not stated),-3%
CCC(C)Sc1nc(O)cc(=O)[nH]1 (configuration not stated),10%
CC1CC(C)(C)NC(=S)N1CC(=O)N1CCN(Cc2ccc3c(c2)OCO3)CC1 (configuration not stated),-8%
Cc1cccc(CC(C)NC(=O)CCc2nnc(CCCCc3ccccc3)o2)n1 (configuration not stated),15%
Cc1ccc(N(CC(=O)Nc2cc(C)cc(C)c2)S(=O)(=O)c2c(C)noc2C)cc1,5%
CCc1nc(C)cn1S(=O)(=O)c1cc([N+](=O)[O-])ccc1Cl,2%
CCCN(CC(=O)Nc1ccccc1C)C(=O)c1ccc(C(=O)c2ccccc2)cc1,2%
C=CCn1c(C)nnc1SCC(=O)NC1CCCCC1,-12%
COc1cccc2cc(-c3cc(=O)oc4cc(C)c(O)cc34)oc12,12%
O=C(O)CC(O)(CC(=O)O)C(=O)O,1%
CCC(C)(C)NC(=O)C(c1ccc(OC)cc1)N(C(=O)CCC(=O)Nc1cc(C)on1)c1ccc(OC)cc1OC (configuration not stated),-15%
O=C(CNC(=O)c1cccs1)OCC(=O)c1ccccc1Cl,4%
O=C(O)/C(=C\c1ccccc1)c1ccccc1,1%
COc1ccc(Nc2nc3c(C)cccc3cc2C#N)cc1,5%
COc1ccc(OC)c(NC(=S)NCc2cccnc2)c1,0%
O=C1CC(C(=O)Nc2ccccc2)S/C(=N\NC(=O)c2ccccc2Cl)N1 (configuration not stated),-13%
CC(C)(C)N(NC(=O)Nc1ccc(Cl)c(Cl)c1)C(=O)c1ccccc1,-12%
FC(F)Oc1ccc(NC(=S)NCC2COc3ccccc3O2)cc1 (configuration not stated),-9%
CN(C)CCN(C(=O)C1CCN(S(=O)(=O)c2cccs2)CC1)c1nc2ccc(F)cc2s1,-3%
COc1cc(NC(=O)c2cc(S(=O)(=O)N3CCc4ccccc43)cn2C)cc(OC)c1OC,-34%&-5%
CC(=O)NC(CC(=O)O)c1ccc([N+](=O)[O-])cc1 (configuration not stated),-3%
O=C(NCC1CCCO1)c1ccc(COCC(F)(F)C(F)F)cc1 (configuration not stated),2%
Cc1ccc(NC(=S)N2C3CCCC2CC(NC(=O)C2CC2)C3)cc1C (configuration not stated),3%
CCOC(=O)c1sc(NC(=O)c2ccncc2)nc1C,-2%
CC(C)Cc1nc(SCC(=O)N2CC(C)OC(C)C2)c2c(=O)n(C)c(=O)n(C)c2n1 (configuration not stated),-3%

# The list goes on; the last 3 above are carried over.
SMILES,FEN1 inhibitor
Cc1ccc(NC(=S)N2C3CCCC2CC(NC(=O)C2CC2)C3)cc1C (configuration not stated),3%
CCOC(=O)c1sc(NC(=O)c2ccncc2)nc1C,-2%
CC(C)Cc1nc(SCC(=O)N2CC(C)OC(C)C2)c2c(=O)n(C)c(=O)n(C)c2n1 (configuration not stated),-3%
COc1ccc(-c2csc3ncnc(N4CCN(S(=O)(=O)c5ccccc5C#N)CC4)c23)cc1,3%
O=C(c1cnn(-c2nc3ccccc3s2)c1)c1ccccc1O,-1%
N=c1c(C(=O)NCC2CCCO2)cc2c(=O)n3ccccc3nc2n1Cc1ccco1 (configuration not stated),7%
O=C(Nc1cnn(Cc2ccc(Cl)cc2)c1)C1CCCC1,1%
O=C(O)CCC/C=C\C[C@@H]1[C@@H](/C=C/[C@@H](O)COc2cccc(Cl)c2)[C@H](O)C[C@@H]1O,18%
O=C1C(Nc2ccccc2)=C2CCCC=C2N1c1ccccc1,-1%
COC(=O)c1cc2sccc2n1CC(=O)N1CCCc2ccccc21,-12%
CCc1nc2ccccc2n1CC(O)COc1ccc(NC(C)=O)cc1 (configuration not stated),13%
COC(=O)c1c(NC(=O)CSc2nnc(-c3cccnc3)n2Cc2ccco2)sc(C)c1C,0%
COc1ccc(Nc2nnc(SCc3cc(=O)n4ccsc4n3)s2)cc1,-10%
COc1ccccc1N1CCN(C(=O)CSc2nc3ncnc(N)c3[nH]2)CC1,-3%
COC(=O)c1ccccc1NC(=O)CSc1nnc(-c2ccncc2)o1,-1%
CCOC(=O)CCCNC(=O)c1cncc(Br)c1,-11%
Cc1noc(C)c1CSCC(=O)N(CCC(C)C)c1c(N)n(Cc2ccccc2)c(=O)[nH]c1=O,-3%
COc1ccc(CC(=O)Nc2ccc(-c3noc(-c4cccc(OC)c4)n3)cc2)cc1,0%
CCOC(=O)N1CCN(C(=O)COc2ccc(Cl)cc2C)CC1,5%
COc1ccc(C)cc1NC(=O)C(NCC1CCCO1)c1ccccc1 (configuration not stated),-3%
CCOc1ccc(S(=O)(=O)NCCC(=O)N2CCC(Cc3ccccc3)CC2)cc1,-16%
COc1cc2c(=O)n(Cc3ccccc3)c(=O)n(CC(=O)NCC3CCCO3)c2cc1OC (configuration not stated),-8%
N#Cc1cc(Br)ccc1N=C1CCCN1c1ccccc1,-2%
CCSc1nnc(NC(=O)CSc2nc3c(c(=O)n2C)SC(C)C3)s1 (configuration not stated),-16%
O=C(Nc1cccc(C(F)(F)F)c1)c1scc2c1OCCO2,8%
OCCN(CC#CC(O)(c1ccccc1)c1ccccc1)CCO,-3%
CC1CCN(C(=O)CSc2nc3c(c(=O)n2C)SCC3)CC1,-6%
Cc1onc(-c2c(F)cccc2Cl)c1C(=O)OCN1C(=O)c2ccccc2C1=O,-16%
Cc1cc(C)c(S(=O)(=O)N2CCN(c3ccc([N+](=O)[O-])c(NCC4CCCO4)c3)CC2)c(C)c1 (configuration not stated),9%
Cc1c(CN2CCC(C(=O)Nc3cccc(-c4cccc(Cl)c4)c3)CC2)cnn1C,9%
COc1ccc(-n2nnnc2-c2cn(C)nc2C(F)(F)F)cc1,23%
CC(OC(=O)CCN=C1NS(=O)(=O)c2ccccc21)C(=O)Nc1ccccc1F (configuration not stated),0%
CCOc1ccccc1/C=N/NC(=O)CNC(=O)c1cccs1,-2%

# Quoted from the listing.
# Under FEN1 inhibitor, OCCN(CC#CC(O)(c1ccccc1)c1ccccc1)CCO has -3%
# Under FEN1 inhibitor, CC(OC(=O)CCN=C1NS(=O)(=O)c2ccccc21)C(=O)Nc1ccccc1F (configuration not stated) has 0%
# Under FEN1 inhibitor, CC1CCN(C(=O)CSc2nc3c(c(=O)n2C)SCC3)CC1 has -6%
# Under FEN1 inhibitor, CCOC(=O)N1CCN(C(=O)COc2ccc(Cl)cc2C)CC1 has 5%

# Next section.
SMILES,FEN1 inhibitor
CC1(C)CC(NC(=O)C23CCC(C)(C(=O)C2)C3(C)C)CC(C)(C)N1 (configuration not stated),-8%
Cc1ccc(NC(=O)c2ccc(-n3cccn3)c([N+](=O)[O-])c2)cc1C,2%
Cc1ccc(C2C3C(=O)N(c4ccccc4)C(=O)C3N3CCCN23)cc1 (configuration not stated),1%
N#CCc1nc(CSc2nc3ccccc3s2)cs1,0%
CSc1nc(Oc2ccc(=O)n(C)n2)nc(N(C)C)n1,-3%
Cc1ccccc1OCc1nc2c3cnn(C)c3ncn2n1,-16%
Cc1ccc(CCC(=O)Nc2ccccc2F)s1,-14%
CN(C)c1cc[n+](Cc2c(Cl)cccc2Cl)cc1,-1%
Cc1ccc(C2(C)NC(=O)N(CC(=O)NC(=O)NCCC(C)C)C2=O)cc1 (configuration not stated),-9%
CCOC(=O)c1oc2ccc(CNCCO)c(Cl)c2c1C,-13%
N#Cc1c(SCC(=O)O)nc(N2CCCCC2)c2c1CCCC2,5%
COc1cc(NC2c3ccccc3C(=O)N2c2ccc(C)cn2)cc(OC)c1OC (configuration not stated),-2%
Cc1cc(NC(=O)CO/N=C/c2ccc3c(c2)OCO3)ccc1Br,-12%
CCOc1ccc(-c2cnc(SCC(N)=O)nc2N)cc1,1%
Cc1cc(Nc2ccccc2)n(CCO)n1,5%
CCN(C(=O)COC(=O)c1ccc(COc2ccc3c(C)cc(=O)oc3c2)cc1)C1CCS(=O)(=O)C1 (configuration not stated),4%
COCCNCCCCOc1ccccc1-c1ccccc1,1%
CCOc1ccccc1/C=N/NC(=O)c1ccc(Cn2cc([N+](=O)[O-])cn2)o1,-16%
O=C(CN1C(=O)CSC1=O)N1CCCCC1,-5%
Cc1ccc2c(c1)NC(=O)C(CC(=O)NCc1ccc(F)cc1)O2 (configuration not stated),13%
Cn1nnc(C(O)CNCc2ccc(Cl)cc2)n1 (configuration not stated),7%
COc1ccc(NC(=O)Nc2ccccn2)cc1OC,16%
CN(C)CCCNC(=O)C(=O)NCC1CCCO1 (configuration not stated),-5%
CCN(CC)C(=O)Oc1ccc2ccccc2c1Cl,-5%
COc1cccc(-n2nnc3c(=O)n(CC(=O)Nc4cc(C)on4)cnc32)c1,-1%
NC(N)=NC(N)=Nc1ccc2ccccc2c1,-17%
Cc1cc(C)c(S(=O)(=O)n2cc(C(C)C(N)C(=O)O)c3ccccc32)c(C)c1 (configuration not stated),-11%
CN1CCN(C(=O)c2ccc(NS(=O)(=O)c3ccccc3)cc2)CC1,-14%
CCCOC(=O)Oc1ccc2c(=O)c(Oc3cc(C)cc(C)c3)coc2c1,-1%
CC1=C(C(=O)OCC(C)C)C2(O)C(=O)c3ccccc3C2(O)N1 (configuration not stated),0%
CCCOc1ccc(-c2c(C(=O)N/N=C/c3ccc(C)cc3)nnn2-c2nonc2N)cc1,3%
COc1cccc(-c2nc3n(n2)C(c2ccc4c(c2)OCO4)C(C(N)=O)=C(C)N3)c1 (configuration not stated),-4%
O=C(COc1ccc(Cl)cc1Cl)N/N=C/CCc1ccccc1,2%
COc1ccc(S(=O)(=O)n2cccc2)cc1OC,-4%
CN(C1CCCCC1)S(=O)(=O)c1ccc(NC(=S)NC(=O)c2cccs2)cc1,1%
Cc1ccc(CC(NC(=O)c2ccccc2)C(=O)NCC(=O)O)cc1 (configuration not stated),11%
CCOc1cc(/C=N/n2cnnc2)ccc1OC(=O)c1cccc([N+](=O)[O-])c1,-7%
CCOc1cc(C2C(C#N)=C(N)SC(N)=C2C#N)ccc1OCCN1CCOCC1,-2%
CSc1nc(N)nc(SCC(=O)Nc2ccc(Cl)cc2)c1C#N,-13%
CCOc1ccc(C(O)c2nccn2C)cc1 (configuration not stated),0%
COC(=O)CCNC(=O)c1nn(Cc2ccccc2)c(=O)c2ccccc12,5%
Cc1ccc(S(=O)(=O)N(C)C)cc1NC(=O)CSc1nc2ccccc2[nH]1,-1%
Cn1c(=O)c2c(ncn2CC(=O)N/N=C/C=C\c2ccccc2[N+](=O)[O-])n(C)c1=O,16%
CCn1cnc2scc(-c3ccccc3)c2c1=O,4%
CC(C)c1nc(N2CCN(C(=O)c3ccco3)CC2)c2c3c(sc2n1)CCCC3,-21%

# A section of the results above, as a working copy:
SMILES,FEN1 inhibitor
Cn1c(=O)c2c(ncn2CC(=O)N/N=C/C=C\c2ccccc2[N+](=O)[O-])n(C)c1=O,16%
CCn1cnc2scc(-c3ccccc3)c2c1=O,4%
CC(C)c1nc(N2CCN(C(=O)c3ccco3)CC2)c2c3c(sc2n1)CCCC3,-21%

# Further structures:
SMILES,FEN1 inhibitor
NC(=O)NOCc1ccc(Cl)cc1Cl,-8%
Fc1cccc(Cl)c1CSC1=NCCS1,14%
Cc1cc(C(=O)OCC(=O)Nc2c(F)cccc2F)c(C)n1-c1ccccc1,-12%
CCN1CCN(CCCNC(=O)c2csc3c2CCCCC3)CC1,-1%
Cc1nonc1CN(C)C(=O)CC1C(=O)NCCN1Cc1ccccc1F (configuration not stated),0%
Cc1ccc(OCc2n[nH]c(=S)n2-c2ccc(C)cc2)cc1,-2%
O=C1C=C(NCc2ccccc2)C2(CCCCC2)O1,-16%
